High-throughput results from PubChem.
MITF inhib: blocks MITF activity. AID 2240. 37,000 tested, 0.28% active. inhibition, % (test concentration not listed). TRPM1 promoter luciferase, luminescence, 24 h;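 active means most replicates at 85% or more, or half of them and the mean; inconclusive means half reach 85% but not the mean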;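 further: human melanocyte line stably carrying TRPM1 promoter luciferase reporter; 0% = vehicle wells and 100% = a positive control; the first replicate is given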
PD-1 reversal: reversal of PD-1 mediated T-cell inhibition; primary human CD4 T cells, PD-L1 beads, CellTiter-Glo 96 h; activation, % (test concentration not listed); 29,000 tested, under 10 active;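 active means replicate mean of 50% or more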;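 further: 0% = median vehicle wells and 100% = positive control; 100 nL library stock added to about 50 µL; numbers are from one replicate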
YB-1 expr inh: YB-1 expression inhibition; U2OS, qRT-PCR YB-1 vs CDIP delta delta Cp, 16 h; stronger effect = higher value; zero = DMSO, each unit about twofold; delta delta Cp (YB-1 minus CDIP) (test concentration not listed); 30,000 tested, 0.37% active; AID 434959;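 active means delta delta Cp rounded down to an integer at or above 3, about 3 SD of DMSO wells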;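 further: higher means less YB-1 transcript or more CDIP transcript relative to DMSO; stock transfer was 100 nL into about 100 µL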
Hedgehog inh: blocks Sonic Hedgehog signaling. AID 2313. 22,000 tested, 2.1% active. inhibition, % (test concentration not listed). Shh-LIGHT2 Gli-luciferase reporter, 30 h;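 active means replicate mean of 65% or more; inconclusive means mean lower but half the replicates past it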;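 further: pathway switched on by Shh-conditioned medium diluted 1 in 25 in low serum; 100 nL library stock added to about 40 µL; 0% = median of neutral wells and 100% = positive control level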
The depositor's hits bear a star; u = inconclusive; x = not tested or not shown. The list is partial (hit frequency here may not be typical).

nr	Compound	YB-1 expr inh	Hedgehog inh
1	COc1ccc(-c2nnc(Nc3cccc(C(F)(F)F)c3)c3ccccc23)cc1	-0.529	87.0*
2	C[C@H](CO)N1C[C@H](C)[C@H](CN(C)S(=O)(=O)c2ccc(Cl)cc2)Oc2ccc(NC(=O)Nc3cccc4ccccc34)cc2CC1=O	-0.0675	-21.2
3	COc1ccc(NC(=O)Nc2ccc3c(c2)CC(=O)N([C@H](C)CO)C[C@H](C)[C@H](CN(C)C(=O)Nc2ccc(C(F)(F)F)cc2)O3)cc1	0.183	-16.6
4	Cc1noc(C)c1S(=O)(=O)Nc1ccc2c(c1)C(=O)N([C@H](C)CO)C[C@H](C)[C@@H](CN(C)C(=O)CCC(F)(F)F)OCCCC[C@@H](C)O2	-0.32	-16.3
5	C[C@H]1CN([C@@H](C)CO)C(=O)c2cccc(NC(=O)C3CC3)c2O[C@@H]1CN(C)C(=O)Nc1ccccc1	-0.147	-7.8
6	Cc1cc(C)cc(N(CC(=O)Nc2c(C)cc(C)cc2C)S(C)(=O)=O)c1	x	x
7	Cc1noc(C)c1S(=O)(=O)Nc1ccc2c(c1)CC(=O)N([C@@H](C)CO)C[C@@H](C)[C@@H](CN(C)S(=O)(=O)c1ccccc1)O2	-0.163	11.9
8	Nc1nc(SCC(=O)Nc2ccccc2C(F)(F)F)n[nH]1	x	x

nr	MITF inhib	PD-1 reversal
1	52.2	-0.6
2	46.2	2.1
3	9.9	-2.5
4	-5.1	x
5	-2.5	0.9
6	-1.3	0.0
7	2.0	x
8	6.7	0.7

(next part)
nr	Compound	YB-1 expr inh	Hedgehog inh
9	C[C@@H]1CN([C@@H](C)CO)C(=O)c2cc(NC(=O)C3CC3)ccc2O[C@@H]1CN(C)C(=O)NC1CCCCC1	0.0695	x
10	COc1ccc(NC(=O)NCc2ccc(C(=O)O)cc2)c(OC)c1	x	x
11	C[C@H](CO)N1C[C@H](C)[C@H](CN(C)Cc2ccc(C(=O)O)cc2)Oc2ccc(NC(=O)C3CC3)cc2C1=O	0.0459	-53.7
12	COc1cc(NC(=O)COc2cc(C)c(C)cc2C)c(C(=O)O)cc1OC	x	x
13	C[C@H](CO)N1C[C@H](C)[C@@H](CN(C)CC2CC2)Oc2c(NC(=O)c3ccc(-c4nccs4)cc3)cccc2C1=O	-0.223	31.5
14	O=C(CSc1n[nH]c(-c2ccc(Cl)cc2)n1)NC1CC2CCC1C2 (stereo not drawn)	x	x
15	Cc1noc(C)c1NC(=O)Nc1cccc2c1O[C@H](CN(C)C(=O)Nc1c(C)noc1C)[C@@H](C)CN([C@@H](C)CO)C2=O	0.207	-30.9
16	O=C(Oc1ccc(OC(=O)c2ccco2)cc1)c1ccco1	0.519	x

nr	MITF inhib	PD-1 reversal
9	1.3	0.4
10	-9.2	3.4
11	5.4	0.7
12	-37.4	3.2
13	-2.7	-2.4
14	18.6	-3.0
15	-5.5	1.0
16	14.7	-4.8

Other compounds follow.
nr	Compound	YB-1 expr inh	Hedgehog inh
17	C[C@H]1CN([C@@H](C)CO)C(=O)c2cccc(NC(=O)Nc3ccc(F)cc3)c2O[C@H]1CN(C)C	-0.367	-11.7
18	C[C@H](CO)N1C[C@H](C)[C@H](CN(C)S(=O)(=O)c2cn(C)cn2)Oc2ccc(NC(=O)NC3CCCCC3)cc2CC1=O	0.549	77.1*
19	Cc1noc(C)c1NC(=O)Nc1cccc2c1O[C@@H](CN(C)Cc1ccc(-c3ccccc3)cc1)[C@@H](C)CN([C@H](C)CO)C2=O	0.252	-4.7
20	Cc1ccc(C(=O)c2ccc(Oc3ccccc3)cc2)cc1	-0.0517	-83.1
21	COC(=O)C1(Cc2ccc(O)c(CC=C(C)C)c2)OC(=O)C(OC)=C1c1ccc(O)c(O)c1 (stereo not drawn)	0.206	-9.1
22	COc1ccc(NC(=O)Nc2ccc3c(c2)C(=O)N([C@H](C)CO)C[C@H](C)[C@H](CN(C)C(=O)CCCN(C)C)OCCCC[C@@H](C)O3)cc1	0.137	x
23	COc1ccc(S(=O)(=O)Nc2ccc3c(c2)C(=O)N([C@H](C)CO)C[C@@H](C)[C@@H](CN(C)S(=O)(=O)c2ccccc2)O3)cc1	-0.233	-2.3
24	O=C1C(=O)N(CCCn2ccnc2)C(c2ccc(Cl)cc2)C1C(=O)c1cccs1 (stereo not drawn)	x	x

nr	MITF inhib	PD-1 reversal
17	-2.2	1.9
18	-10.5	2.4
19	7.8	-2.0
20	-36.9	1.2
21	9.6	2.3
22	-10.8	0.9
23	3.4	0.9
24	-14.9	0.6

Some values from the entries so far.
Entry for C[C@H]1CN([C@@H](C)CO)C(=O)c2cccc(NC(=O)Nc3ccc(F)cc3)c2O[C@H]1CN(C)C in PD-1 reversal: 1.9
Entry for COc1ccc(NC(=O)Nc2ccc3c(c2)C(=O)N([C@H](C)CO)C[C@H](C)[C@H](CN(C)C(=O)CCCN(C)C)OCCCC[C@@H](C)O3)cc1 in MITF inhib: -10.8

(listing goes on)
nr	Compound	YB-1 expr inh	Hedgehog inh
25	C[C@H]1CN([C@@H](C)CO)C(=O)c2cccc(NC(=O)c3ccc(-c4nccs4)cc3)c2O[C@H]1CN(C)Cc1ccc(C(F)(F)F)cc1	-0.253	-31.0
26	CC(C)NC(=O)Nc1cccc2c1O[C@H](CN(C)Cc1ccc(C(=O)Nc3ccccc3N)cc1)[C@H](C)CN([C@H](C)CO)C2=O	-0.175	x
27	Cc1noc(C)c1S(=O)(=O)N(C)C[C@@H]1Oc2c(NC(=O)c3cnccn3)cccc2C(=O)N([C@@H](C)CO)C[C@@H]1C	-0.386	-8.7
28	CNC[C@H]1Oc2c(NC(=O)Nc3ccc(C(F)(F)F)cc3)cccc2C(=O)N([C@H](C)CO)C[C@@H]1C	0.0493	-38.3
29	C[C@H](CO)N1C[C@H](C)[C@@H](CN(C)C(=O)Nc2ccc(F)cc2)Oc2ccc(NS(=O)(=O)c3ccc(F)cc3)cc2C1=O	-0.434	-8.8
30	COc1ccc(-c2nnc(SCC(=O)Nc3ccc(Cl)cc3Cl)n2-c2ccccc2)cc1OC	x	x
31	C[C@H](CO)N1C[C@H](C)[C@@H](CN(C)S(=O)(=O)c2ccc(Cl)cc2)Oc2c(NC(=O)C3CCOCC3)cccc2C1=O	1.21	5.5
32	Cc1ccccc1OCC(=O)Nc1ccccc1NC(=O)c1ccco1	x	x

nr	MITF inhib	PD-1 reversal
25	2.5	x
26	3.0	-2.0
27	-14.5	x
28	-17.5	2.2
29	-1.3	0.5
30	-6.2	-0.3
31	3.3	1.9
32	10.2	-0.9

Following part
nr	Compound	YB-1 expr inh	Hedgehog inh
33	C[C@@H]1CN([C@@H](C)CO)C(=O)Cc2cc(NS(C)(=O)=O)ccc2O[C@@H]1CN(C)C	0.163	0.6
34	C[C@@H]1CCCCO[C@H](CN(C)C(=O)Nc2ccccc2)[C@@H](C)CN([C@H](C)CO)C(=O)c2cc(NC(=O)c3ccncc3)ccc2O1	-0.707	x
35	O=C(Nc1ccccc1[N+](=O)[O-])c1cccc(S(=O)(=O)Nc2ccc(F)cc2)c1	x	x
36	C[C@H]1CN([C@@H](C)CO)C(=O)c2cccc(NS(=O)(=O)c3ccc(Cl)cc3)c2O[C@@H]1CN(C)C(=O)Nc1cccc2ccccc12	-0.534	15.6
37	CCC(C)C(O)C(C)(O)/C=C/C1=CC2=CC(=O)C(C)(O)C(O)C2CO1 (stereo not drawn)	0.428	-17.8
38	CCC(=O)O[C@]1(C(=O)CCl)[C@@H](C)CC2C3CCC4=CC(=O)C=C[C@]4(C)[C@@]3(F)[C@@H](O)C[C@@]21C (stereo partly drawn)	-0.14	79.4*
39	Cc1noc(C)c1S(=O)(=O)N(C)C[C@H]1Oc2ccc(NC(=O)CCC(F)(F)F)cc2CC(=O)N([C@H](C)CO)C[C@H]1C	-0.0422	1.6
40	C[C@@H]1CN([C@H](C)CO)C(=O)c2cccc(NC(=O)C3CCCCC3)c2O[C@H]1CN(C)C(=O)Nc1ccccc1	-0.408	-0.8

nr	MITF inhib	PD-1 reversal
33	5.1	x
34	-4.7	0.8
35	28.3	0.6
36	4.7	x
37	x	x
38	-22.2	x
39	0.0	x
40	0.7	3.2

Next records follow:
nr	Compound	YB-1 expr inh	Hedgehog inh
41	Cc1cccc(NS(=O)(=O)c2cc(C(=O)Nc3ccccc3C(=O)N3CCOCC3)ccc2Cl)c1	x	x
42	C=CCc1c(C)[nH]c(=S)[nH]c1=O	-0.637	1.9
43	C[C@@H]1CCCCO[C@H](CN(C)C)[C@@H](C)CN([C@H](C)CO)C(=O)c2cc(NS(=O)(=O)c3cccs3)ccc2O1	0.101	-28.4
44	COc1ccc(S(=O)(=O)N(C)C[C@@H]2Oc3ccc(NC(=O)CCCN(C)C)cc3CC(=O)N([C@H](C)CO)C[C@H]2C)cc1	-0.293	-13.0
45	Cc1ccc(-c2nc3ccccc3s2)cc1NC(=O)COc1cccc(C)c1C	x	x
46	COc1ccc(NC(=O)Nc2ccc3c(c2)C(=O)N([C@H](C)CO)C[C@H](C)[C@H](CN(C)CC2CCCCC2)O3)cc1	-0.185	-1.6
47	O=C(CC1OCCN(Cc2ccccc2)C1=O)Nc1cccc(Cl)c1 (stereo not drawn)	x	x
48	N=c1ncn(CC(O)CO)c2nc(Br)[nH]c12 (stereo not drawn)	-0.139	-10.4

nr	MITF inhib	PD-1 reversal
41	-15.8	-0.8
42	7.0	0.3
43	-2.0	x
44	-1.4	x
45	-54.9	1.5
46	-5.0	0.1
47	-1.1	-0.7
48	-24.2	0.4

Next section.
nr	Compound	YB-1 expr inh	Hedgehog inh
49	C[C@H]1CN([C@@H](C)CO)C(=O)c2cc(NC(=O)Nc3ccc(C(F)(F)F)cc3)ccc2O[C@H]1CN(C)S(C)(=O)=O	-0.298	u
50	COc1ccc(C(C)=O)cc1CSc1nc(C)cc(C)n1	x	x
51	C[C@H](CO)N1C[C@H](C)[C@H](CN(C)S(=O)(=O)c2cccs2)Oc2ccc(NS(=O)(=O)c3cn(C)cn3)cc2CC1=O	0.074	31.3
52	C[C@H]1CN([C@@H](C)CO)C(=O)c2cccc(NC(=O)Nc3ccccc3)c2O[C@H]1CN(C)S(C)(=O)=O	-0.175	-18.7
53	Cc1ccc(S(=O)(=O)N(C)C[C@@H]2Oc3ccc(NC(=O)Nc4ccc5c(c4)OCO5)cc3C(=O)N([C@@H](C)CO)C[C@@H]2C)cc1	0.561	-2.9
54	C[C@H]1CN([C@@H](C)CO)C(=O)Cc2cc(NS(=O)(=O)c3cccs3)ccc2O[C@H]1CN(C)S(=O)(=O)c1cccs1	0.277	42.3
55	C[C@@H]1CN([C@H](C)CO)C(=O)c2cc(NS(=O)(=O)c3ccccc3)ccc2O[C@H]1CN(C)Cc1ccc2c(c1)OCO2	0.227	10.7
56	CC1=CC(C)C2(COC(=O)Nc3ccccc3)COC(c3cccnc3)C1C2C (stereo not drawn)	-0.33	91.9*

nr	MITF inhib	PD-1 reversal
49	-10.2	0.0
50	-10.8	-1.9
51	-0.5	x
52	-4.2	1.4
53	-36.5	-0.9
54	1.5	0.0
55	-5.8	x
56	53.0	-0.5

Three compounds out of the list, ordered by molecular weight, smallest number first:
nr	Compound	YB-1 expr inh	Hedgehog inh
50	COc1ccc(C(C)=O)cc1CSc1nc(C)cc(C)n1	x	x
49	C[C@H]1CN([C@@H](C)CO)C(=O)c2cc(NC(=O)Nc3ccc(C(F)(F)F)cc3)ccc2O[C@H]1CN(C)S(C)(=O)=O	-0.298	u
54	C[C@H]1CN([C@@H](C)CO)C(=O)Cc2cc(NS(=O)(=O)c3cccs3)ccc2O[C@H]1CN(C)S(=O)(=O)c1cccs1	0.277	42.3

nr	MITF inhib	PD-1 reversal
50	-10.8	-1.9
49	-10.2	0.0
54	1.5	0.0

The list goes on.
nr	Compound	YB-1 expr inh	Hedgehog inh
57	O=C(O)c1cc(=O)c2c(Cl)cc(Cl)cc2[nH]1	-0.0232	10.9
58	Cc1c(NC(=O)C(C)N2C(=O)c3ccccc3C2=O)c(=O)n(-c2ccccc2)n1C (stereo not drawn)	x	x
59	C[C@@H]1CN([C@H](C)CO)C(=O)c2cc(NC(=O)Nc3ccc(C(F)(F)F)cc3)ccc2O[C@H]1CN(C)C(=O)Nc1cccc2ccccc12	-0.262	17.5
60	C[C@@H]1CN([C@H](C)CO)C(=O)c2cccc(NC(=O)C3CCOCC3)c2O[C@H]1CN(C)CC1CCCCC1	0.15	-19.0

nr	MITF inhib	PD-1 reversal
57	-7.3	1.1
58	-5.3	2.3
59	4.8	x
60	-7.0	-0.8

A different layout for 2 compounds above.
Value order – YB-1 expr inh	Hedgehog inh	MITF inhib	PD-1 reversal
(7) Cc1noc(C)c1S(=O)(=O)Nc1ccc2c(c1)CC(=O)N([C@@H](C)CO)C[C@@H](C)[C@@H](CN(C)S(=O)(=O)c1ccccc1)O2
  -0.163	11.9	2.0	x
(30) COc1ccc(-c2nnc(SCC(=O)Nc3ccc(Cl)cc3Cl)n2-c2ccccc2)cc1OC
  x	x	-6.2	-0.3
